Compound activity from PubChem.
rRNA inh HTS: reduced GFP signal of wild-type E. coli, primary screen, bacterial rRNA inhibitor project, GFP/RFP fluorescence, OD600, single point. E. coli WT GFP vs humanized-ribosome RFP mutants, 24 h; hits give low values; DMSO median 0, no signal -100. GFP signal change (wild-type ribosome), % (concentration not given with the values). actives 1.6% (n = 350,000);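 active = significant combined selectivity score with lowered wild-type GFP, culture density cut under 30%, mutant RFP and density less affected; inactive = any of these conditions unmet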; note: one replicate is shown; some compounds called inactive have numbers as strong as hits
T cruzi repl: inhibitors of intracellular T. cruzi growth, primary screen, luminescence, NIH3T3 host cells. AID 1885, 2009. actives 1.4% (n = 300,000). T. cruzi beta-gal in NIH3T3, 90 h. inhibition, % (concentration not given with the values);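 active = mean inhibition across valid replicates above about 55%, limit read from the data; inconclusive = mean below that limit but half or more replicates reach it; inactive = mean below it, under half of replicates reach it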;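 note: signal also drops with host cell toxicity which is not excluded here; 0% = plate median of DMSO wells and 100% = zero luminescence signal; higher percent means less beta-gal luminescence so fewer parasites; stock transfer was 50 nL into about 50 µL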
Calb FLC: C. albicans growth inhibition with fluconazole, primary screen, CaCi-2 strain, Alamar Blue fluorescence. C. albicans CaCi-2 (fluconazole-resistant clinical isolate) + fluconazole, 48 h. growth inhibition, % (concentration not given with the values). actives 0.57% (n = 300,000);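 active = most replicates above 75%; inconclusive = exactly half above 75%; inactive = most below 75%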;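 note: all wells also contain fluconazole at 8 µg/ml as a sub-toxic cotreatment; 0% = median of DMSO wells and 100% = median of geldanamycin control wells; wells of about 8 µL received 7.5 nL stock; the first replicate is given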
A1 inh: caspase 3/7 activation in MEF A1-2A-BIM cells, primary screen, A1 inhibitor project, cell-based, luminescence, HTS; Caspase-Glo 3/7 luminescence, 3 h; percent of clofoctol response, vehicle zero; caspase activation, % (concentration not given with the values); actives 0.066% (n = 330,000); AID 2462, 2010;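 active = over half of replicate activation scores above 10%, or exactly half above 10 with the replicate mean above 10; inconclusive = replicate mean below 10 yet half the replicates above 10; inactive = over half of replicates below 10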;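 note: wells of about 30 µL received 50 nL stock; many hits fall short of the cut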
Beta apoptosis: inhibitors of cytokine-induced beta cell apoptosis, primary screen, luminescence. INS-1E cytokine-induced death, ATP luminescence, 48 h; percent of positive-control rescue, neutral wells zero. protection from apoptosis, % (no concentration beside the values). actives 0.8% (n = 300,000);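 active = all replicates at 75% or more, or half of them and the mean; inconclusive = half reach 75% but not the mean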;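 note: 0% = cytokine-treated negative control wells and 100% = positive control rescue; higher means more ATP so stronger rescue from cytokine killing; wells of about 40 µL received 100 nL stock; the first replicate is given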
MLL AF4-AF9 inh: inhibitors of AF4 peptide binding to AF9, primary screen, biochemical, AlphaScreen, biotin-AF4 peptide, FLAG-AF9, single point. Protein AF-9 (Homo sapiens), P42568. inhibition, % at 10 µM. actives 0.47% (n = 350,000). AID 651704, 2012;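 active = every replicate reaching a set inhibition limit, whatever the replicate mean, cut at about 25% in these data; inconclusive = mean inhibition reaches that limit but some replicates miss it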;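 note: 0% = plate neutral control median and 100% = total signal loss; the record names both 10 and 1 µM as test concentration; the first replicate is given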
Target sequence (P42568 whole entry, looked up): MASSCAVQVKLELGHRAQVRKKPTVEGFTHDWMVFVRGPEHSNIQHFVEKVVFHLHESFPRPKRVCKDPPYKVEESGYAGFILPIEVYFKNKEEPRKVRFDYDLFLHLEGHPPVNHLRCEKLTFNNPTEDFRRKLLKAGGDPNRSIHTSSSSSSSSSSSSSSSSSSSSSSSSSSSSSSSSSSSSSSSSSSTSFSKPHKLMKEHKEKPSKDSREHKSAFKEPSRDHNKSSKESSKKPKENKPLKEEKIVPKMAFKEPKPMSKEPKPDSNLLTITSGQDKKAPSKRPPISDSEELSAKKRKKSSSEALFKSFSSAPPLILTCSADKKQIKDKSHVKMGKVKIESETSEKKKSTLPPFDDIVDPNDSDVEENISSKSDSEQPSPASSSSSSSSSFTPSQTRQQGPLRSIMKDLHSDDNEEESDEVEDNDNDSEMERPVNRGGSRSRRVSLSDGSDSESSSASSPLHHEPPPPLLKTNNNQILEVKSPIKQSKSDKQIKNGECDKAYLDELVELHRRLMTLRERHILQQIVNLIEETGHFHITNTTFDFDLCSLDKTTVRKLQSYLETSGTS
RanGTP-Imp inh: inhibitors of RanGTP-importin-beta interaction, primary screen, biochemical, FRET, CFP-Ran, YFP-importin-beta, homogeneous; AID 2216, 2009; cell-free CFP-Ran/YFP-importin-beta FRET ratio; actives 1.1% (n = 300,000); inhibition, % (concentration not given with the values); Ran GTPase (GTP-bound) - importin-beta complex;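 active = most replicates above 15%; inconclusive = exactly half above 15%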;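 note: 0% = DMSO wells and 100% = Ran loaded with GDP instead of GTP; wells of about 40 µL received 100 nL stock; the first replicate is given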
Vif A3G: inhibitors of Vif binding to APOBEC3G peptide, primary screen, biochemical, TR-FRET, GST-Vif 1-94, biotin-A3G peptide, dose response retest (AID 1117319) | Virion infectivity factor (Human immunodeficiency virus type 1 group M subtype B (isolate … | TR-FRET GST-Vif / biotin-A3G peptide binding; higher % means a stronger effect; test concentration not given here; strong numbers were not always called active | actives 0.57% (n = 260,000) | inhibition, %, or IC50 in µM where a hit was titrated;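 active = above the screen mean plus three standard deviations and confirmed in dose response; inconclusive = results disagree or hit not tested in dose response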;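 note: Vif residues 1-94 fused to GST binding biotinylated APOBEC3G peptide 110-148; 0% = full assay without inhibitor and 100% = GST in place of GST-Vif; retest series ran down from 100 µM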
rRNA inh HTS OD600: recorded beside rRNA inh HTS, whose call it bears; OD600 change, %; measured here: OD600 growth;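 optical density of the mix in the first replicate; 0 = DMSO median and -100 = no signal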
rRNA inh HTS RFP: second read-out of rRNA inh HTS, no call of its own (marks repeat the call); RFP signal change, %; measured here: RFP humanized mutant strains;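 first replicate; 0 = DMSO median and -100 = no signal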
Numbers without * were called inactive; ? = inconclusive; nt = no result given. This is a subset, so the mix of outcomes need not match the whole.

SMILES	rRNA inh HTS	rRNA inh HTS OD600	rRNA inh HTS RFP	T cruzi repl	Calb FLC	A1 inh	Beta apoptosis	MLL AF4-AF9 inh	RanGTP-Imp inh	Vif A3G
COc1cc(CNc2ccc(N3CCCCC3)cc2)ccc1OCC(=O)NC(C)(C)C	0	12	2.6	38	13	1.1	6	9.5	-2.2	13%
COc1ccc(COCCN2CCN(S(=O)(=O)c3ccccc3)CCC2=O)cc1	6	4	2.9	-9	-13	-0.2	0	-1.6	4.3	nt
CC1=C(C#N)C(=O)NC(=O)/C1=C\c1ccc(-c2cc(C)c(C)cc2[N+](=O)[O-])o1	-34*	-4.5*	0.5*	5	2	nt	nt	6.6	-0.5	nt
CCCc1cc(=O)[nH]c(SCc2cccc(C)c2)n1	nt	nt	nt	-2	10	0.7	-2	nt	-0.3	1%
CN1CCN(NC(=O)c2ccc(COc3ccccc3Br)o2)CC1	9	14	0.6	?	-7	-0.1	-7	1.4	-0.6	30%
Cc1nnc(SCC(=O)NC(C)c2ccccc2)[nH]c1=O (centres undefined)	nt	nt	nt	-18	5	0.3	-3	nt	7.4	-2%
Cc1ccc(NC(=O)C2CCN(S(=O)(=O)c3cccs3)CC2)c(O)c1	1	-18	-0.2	-1	12	0.4	-16	0.3	-0.1	nt
CCCOc1ccc2oc(=O)c3c(c2c1)CCCN3C(=O)CN(C)Cc1ccccc1	nt	nt	nt	24	1	0.6	nt	nt	5.3	3%
Cc1ccc2nc(NC(=O)c3ccc(NS(=O)(=O)c4cccs4)cc3)sc2c1	-13	1	7.7	4	-5	-0.4	-5	4.6	-1.9	?
CCCc1nn(C)c(C(=O)Nc2ccc3ccccc3c2)c1Cl	nt	nt	nt	9	44	-2.2	-1	nt	?	3%
COc1ccc(CCNC(=O)Cc2nn(C)c(=O)c3ccccc23)cc1OC	nt	nt	nt	10	-7	1.0	4	nt	4.0	-1%
COc1ccccc1N(CC(=O)NCc1ccccn1)S(C)(=O)=O	7	0	2.2	-15	1	0.1	-5	-0.7	?	-1%
CC1Cc2cc(S(=O)(=O)N3CCCC(C(=O)N4CCCCC4)C3)ccc2N1C(=O)C1CC1 (centres undefined)	-16	-14	2.9	-8	-1	0.3	1	-0.5	0.1	nt
Cc1n[nH]c(=O)c2c(NC(=O)CSc3nnc(C4CC4)n3C)oc(C)c12	-2	10	-2.4	2	3	-0.3	-6	-2.5	-1.4	-2%
O=C(NNC(=O)c1cccc(Cl)c1)NNC(=O)c1cccc(Cl)c1	-2	-5	1.0	nt	nt	-0.7	-5	3.2	nt	-2%
CC[C@@]12C(=O)N(c3cccc(Cl)c3)C(=O)N1[C@H](c1ccc(Br)cc1)[C@@H]1C(=O)N(C(C)(C)C)C(=O)[C@@H]12	7	8	-1.4	-8	5	1.2	3	1.1	1.3	nt
COc1ccc(NC(=O)c2cccc(Oc3ccc([N+](=O)[O-])cc3Cl)c2)cc1	-24*	-7.7*	-8.7*	2	-2	0.0	-1	3.5	-2.2	?
COc1ccccc1-c1nnc2n1N=C(C(C)(C)C)CS2	nt	nt	nt	3	-19	-0.2	-10	nt	7.1	-3%
O=C(O)C1CC(c2ccccc2F)=NO1 (centres undefined)	nt	nt	nt	-15	4	1.3	-3	nt	6.3	1%
O=C(Nc1ccc2c(c1)CCC2)c1ccc(Br)o1	nt	nt	nt	13	-25	-1.2	2	nt	-1.7	2%
c1ccc2c(c1)CC(CN1CCNCC1)O2 (centres undefined)	16	13	2.7	2	1	-0.2	nt	-3.2	-1.9	3%
COc1ccc(S(=O)(=O)N(C)c2nc3ccccc3n3c(CC(C)C)nnc23)cc1	0	-1	-2.2	34	2	0.3	5	-1.9	?	nt
Cc1ccc(NC(=O)CSc2nnc(/N=C/N(C)C)s2)cc1	2	-1	-1.3	6	10	0.8	1	-2.7	-0.9	nt
COc1ccc(CNC(=O)C2(c3ccc(Cl)cc3)CC2)cc1	nt	nt	nt	-4	-32	0.8	-3	nt	-1.0	-2%
COc1cc2cc(C(=O)N3CCN(Cc4ccc5c(c4)OCO5)CC3)[nH]c2cc1OC	-4	-5	1.7	14	19	0.8	-6	4.7	2.9	nt
CCn1c(SCc2nc3ccccc3s2)nnc1-c1cccs1	nt	nt	nt	6	23	-0.4	4	nt	9.2	-2%
CN1C(=O)CC(N2CCC(c3nc4ccccc4s3)CC2)C1=O (centres undefined)	nt	nt	nt	-6	-3	-0.2	-4	nt	3.5	16%
COc1ccc(CCN(C)C(=O)c2ccc(OCC(=O)N3CCOCC3)c(OC)c2)cc1OC	7	8	-1.2	-1	-13	0.3	-11	-1.6	1.6	nt
C=CCn1c(Sc2nnc(C)s2)nc2c1c(=O)[nH]c(=O)n2C	nt	nt	nt	-12	-4	0.0	-5	nt	5.0	4%
Cc1c(N=C2NN=C(c3c[nH]c4ccccc34)CS2)c(=O)n(-c2ccccc2)n1C	11	11	2.7	0	-12	-0.6	0	-8.7	8.2	-7%

Looked up above:
COc1ccc(NC(=O)c2cccc(Oc3ccc([N+](=O)[O-])cc3Cl)c2)cc1 – MLL AF4-AF9 inh: 3.5
Cc1ccc(NC(=O)CSc2nnc(/N=C/N(C)C)s2)cc1 – Beta apoptosis: 1
COc1ccccc1-c1nnc2n1N=C(C(C)(C)C)CS2 – T cruzi repl: 3
CCn1c(SCc2nc3ccccc3s2)nnc1-c1cccs1 – T cruzi repl: 6

The list continues.
SMILES	rRNA inh HTS	rRNA inh HTS OD600	rRNA inh HTS RFP	T cruzi repl	Calb FLC	A1 inh	Beta apoptosis	MLL AF4-AF9 inh	RanGTP-Imp inh	Vif A3G
Cn1c(=O)oc2cc(S(=O)(=O)N3CCOCC3)ccc21	nt	nt	nt	-3	-2	0.8	0	nt	-0.2	7%
Nc1ccccc1SC1CC(=O)N(c2ccccc2Cl)C1=O (centres undefined)	-3	-6	-1.9	-10	nt	0.0	3	0.9	6.4	-11%
COC(=O)[C@H](CCSC)NC(=O)Nc1ccc(C(C)C)cc1	nt	nt	nt	6	8	0.6	-8	nt	-2.4	14%
O=C(Nc1ccc(Cl)c(Cl)c1)c1ccc(Cn2c(=O)[nH]c3ccsc3c2=O)cc1	3	8	2.2	1	-2	-0.1	16	2.4	-1.3	?
CNC(=O)c1cc(S(=O)(=O)NCc2ccncc2)ccc1OC	4	11	-4.0	-15	-7	-0.6	-4	-2.4	0.7	nt
CC(=O)Nc1ccc(NC(=O)CSc2nnc(NC(=O)C3CC3)s2)cc1	12	11	1.1	-9	1	-0.2	0	-1.5	1.3	nt
CC(C)CCNC(=O)c1nnc(Cc2ccc(Cl)cc2)o1	11	13	-1.0	3	-3	0.9	0	1.4	-0.1	4%
CCCOc1nc2ccccc2cc1/C=C/C(=O)O	14	4	4.1	0	31	1.5	38	1.3	4.4	?
Cc1cc(OCC(=O)Nc2ccccc2F)nc(C(C)C)n1	nt	nt	nt	-9	6	0.3	1	nt	3.4	3%
Cc1ccc(N(C)/N=C/c2ccc(Cl)cc2Cl)nn1	2	12	0.8	-6	-1	0.2	3	2.2	2.7	-11%
CCN(CC)S(=O)(=O)c1ccc(C(=O)NCC(=O)N/N=C/c2ccccc2OC)cc1	2	4	1.8	-8	-5	-0.4	-7	0.5	1.7	-2%
CC(=Nc1ccc(O)cc1)c1sc2ccccc2c1O	nt	nt	nt	6	21	?	2	nt	2.5	?
c1ccc2c(c1)OCC(CNc1ncnc3nc[nH]c13)O2 (centres undefined)	9	3	-0.5	0	-5	0.2	-6	4.9	-1.7	-7%
CCOC(=O)C(=NCCOC)NNc1cc(Cl)ccc1Cl	nt	nt	nt	2	-53	0.5	1	4.1	-0.5	0%
O=C(CN1C(=O)c2ccc([N+](=O)[O-])cc2C1=O)Nc1nnc(C2CC2)s1	11	28	0.4	nt	nt	-0.2	0	-2.5	nt	4%

Retrieved one by one from above:
SMILES	rRNA inh HTS	rRNA inh HTS OD600	rRNA inh HTS RFP	T cruzi repl	Calb FLC	A1 inh	Beta apoptosis	MLL AF4-AF9 inh	RanGTP-Imp inh	Vif A3G
c1ccc2c(c1)OCC(CNc1ncnc3nc[nH]c13)O2 (centres undefined)	9	3	-0.5	0	-5	0.2	-6	4.9	-1.7	-7%
Cc1ccc(N(C)/N=C/c2ccc(Cl)cc2Cl)nn1	2	12	0.8	-6	-1	0.2	3	2.2	2.7	-11%

More records
SMILES	rRNA inh HTS	rRNA inh HTS OD600	rRNA inh HTS RFP	T cruzi repl	Calb FLC	A1 inh	Beta apoptosis	MLL AF4-AF9 inh	RanGTP-Imp inh	Vif A3G
CC(=O)c1c(C)[nH]c(C(=O)OCC(=O)Nc2cc(S(=O)(=O)N3CCCC3)ccc2Cl)c1C	nt	nt	nt	11	-25	-0.5	7	nt	0.4	11%
Cc1ccc(S(=O)(=O)N2CCC(C(=O)NCc3ccccc3Cl)CC2)cc1	nt	nt	nt	-8	4	-0.5	1	nt	-2.0	-3%
COC(=O)c1sc2nc(C)nc(SCC(=O)N3CCC(C(=O)O)CC3)c2c1C	0	-5	0.9	-6	1	-1.3	-2	1.5	-1.9	-19%
Cn1c(SCC(=O)NCc2ccc3c(c2)OCO3)nnc1-c1cccs1	nt	nt	nt	-9	-6	-0.2	-5	nt	-0.5	-1%
COc1ccc(-c2nnc(C)c3nocc23)cc1	4	12	4.2	3	7	0.2	-1	1.6	-4.8	nt
CC(C)(C)NC(=O)Cn1c(SCC(=O)NC2CCCC2)nc2ccccc21	-1	-2	-1.3	-11	3	0.8	nt	-0.8	1.4	nt
CCOC(=O)C1CCN(C(=O)COC(=O)c2oc3ccccc3c2C)CC1	0	-7	-3.8	-7	0	0.3	-4	8.0	-1.0	3%
CCOC(=O)c1[nH]c2cc3c(cc2c1NC(=O)CN1CCCCC1C)OCO3 (centres undefined)	nt	nt	nt	18	-3	0.7	-4	nt	-1.2	-4%
O=C(COC(=O)CC1CC2CCC1C2)NCc1ccc(F)cc1 (centres undefined)	-11	-30	1.1	nt	nt	2.1	-1	-4.1	nt	-5%
CC1=C(C(=O)OCc2ccccc2)N2C(=O)[C@@H](NC(=O)COc3ccccc3)[C@H]2SC1	9	14	0.0	0	18	1.3	-4	-14	-0.9	nt
COc1cccc2cc(C(=O)NCc3ccc(F)cc3)c(=N)oc12	20	12	0.0	-1	-13	0.7	-6	0.6	-4.2	-8%
CCOc1ccc(NC(=O)CSc2nc3cccnc3n2CCOC)cc1	nt	nt	nt	6	5	-0.3	0	nt	-0.6	1%
